Rango-impB inh – prevents formation of the Rango-importin beta complex; Q14974; Rango CFP/YFP FRET sensor + importin beta, 45 min; Potency, µM (series often up to 92.2 µM), without a hit: at the highest dose inhibition of complex formation; actives 0.031% (n = 340,000); active = rising FRET ratio curve, often small or poorly fitted; inconclusive = mostly compound fluorescence or quenching in the first reads; inactive = flat curves in all reads;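 also: potency is read from the fitted curve at half-maximal effect; 0% = DMSO wells and 100% = buffer wells lacking importin beta; nearly all actives have a fitted effect of over 15% in size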
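FRET biosensor Rango (snurportin 1 IBB between N-terminal EYFP and C-terminal Cerulean), 50 nM in PBS/1 mM DTT/0.02% Tween-20/0.1% BSA, preincubated 5 min RT with compound; 0.125 microM importin beta added, 45 min RT, CFP/YFP FRET ratio read.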
Rango release inh – prevents RanGTP from dissociating the Rango-importin beta complex. O95149+P62826. Biochemical FRET Rango-importin beta, RanGTP-induced dissociation. Potency, µM (doses to about 46.1 µM), for the others: top-dose activity change, negative = inhibition. actives 0.071% (n = 340,000); active means falling FRET ratio curve, often poorly fitted, with flat reads before Ran was added; inconclusive means other falling curves, or compound fluorescence or quenching; inactive means flat or rising ratio curve;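 also: potency is read from the fitted curve at half-maximal effect; % of control where 0% means no effect; nearly all actives have a fitted effect of over 45% in size; -100% = wells without RanGTP and RCC1; the record marks most hits as doubtful in a second field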
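Compounds preincubate 5 min with complex of recombinant Rango and importin beta in PBS with 1 mM DTT. Ran (0.6 uM) loaded with 2 mM GTP plus 0.2 uM RCC1 starts dissociation; FRET is recorded 45 min later.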
miR-21 reporter – miR-21 reporter, rising signal. Potency, µM (highest dose often 38.3 µM), inactives show top-dose reporter change, positive = more light. 340,000 tested, under 10 active. HeLa miR-21 FLuc reporter, luciferase, 48 h. AID 2288; active = well fitted rising curve with a large enough effect; inconclusive = small, poorly fitted or top-dose-only effect; inactive = no such curve, though single readings can be large or run the other way;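 also: % of control where 0% means no effect; miR-21 action dims this reporter so a rising signal means less miR-21 action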
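Using DMEM plus 10% FBS, HeLa miR-21-FLuc cells are incubated with test compounds (final up to about 40uM) for 48 hours; firefly luciferase signal is then imaged following reagent-mediated lysis.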
GLA inh pH 4.5 – alpha-galactosidase A (human) inhibition, pH 4.5; P06280; purified enzyme, 4-MU-alpha-Gal fluorescence, pH 4.5; activity change, negative = inhibition, % at 105 µM; 230,000 tested, under 10 active; AID 1467; inconclusive = small, poorly fitted or top-dose-only inhibition, or a rising curve; inactive = flat fitted curve, though single readings scatter; no compound was filed as active;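 also: 0% = full activity with enzyme and -100% = basal without enzyme; dose as in the result columns while the protocol names 77 µM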
Target sequence (P06280 whole entry, looked up): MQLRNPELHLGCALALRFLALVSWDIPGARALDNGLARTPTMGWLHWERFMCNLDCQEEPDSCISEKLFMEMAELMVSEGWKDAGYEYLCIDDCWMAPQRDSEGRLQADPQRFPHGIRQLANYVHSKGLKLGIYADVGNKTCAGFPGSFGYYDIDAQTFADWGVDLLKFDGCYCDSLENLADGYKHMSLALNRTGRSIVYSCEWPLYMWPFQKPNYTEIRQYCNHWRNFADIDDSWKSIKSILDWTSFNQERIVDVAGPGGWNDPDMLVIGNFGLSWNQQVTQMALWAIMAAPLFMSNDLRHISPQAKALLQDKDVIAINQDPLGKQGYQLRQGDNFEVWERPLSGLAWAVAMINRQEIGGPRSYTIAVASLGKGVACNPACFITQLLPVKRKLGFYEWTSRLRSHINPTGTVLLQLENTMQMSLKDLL
Active calls of the source: *; u = inconclusive; x = no result given; & = joins results of further samples. This is a subset, so the mix of outcomes need not match the whole.

Rango-impB inh	Rango release inh	miR-21 reporter	GLA inh pH 4.5	Molecule
1.5%	3%	2%	12	O=C(CN1CCCC1)N1CCCc2ccccc21
-2.0%	5%	1%	0	Cc1ccc(S(=O)(=O)Nc2ccc(C(N)=O)cc2)cc1[N+](=O)[O-]
-1.2%	1%	-4%	x	COc1cccc(CNC(=O)c2cccc(S(=O)(=O)N3CCN(C)CC3)c2)c1
-5.8%	4%	x	x	CC(=O)NCCC(=O)Nc1cc(S(=O)(=O)N2CCOCC2)ccc1N1CCCC1
-0.4%	-1%	x	x	CC(CNC(=O)COC(=O)c1cccnc1Cl)c1ccccc1 (configuration not stated)
u	-11%	-46%	x	Cc1cccc(NC(=O)/C(C#N)=C/c2ccc[nH]2)c1C
-0.7%	-10%	-4%	x	COC(=O)c1c(NC(=O)c2ccccc2C(=O)O)sc2c1CCC2
5.6%	16%	-5%	x	CCOc1ccccc1N(CC(=O)NC1CCCCC1)C(=O)CCC(=O)Nc1cc(C)ccn1
u	-24%	-2%	-8	O=C(NCc1ccco1)c1cccn2c(=O)c3c4c(sc3nc12)CCCC4
2.1%	-1%	28%	-2	COc1ccc(/C=C/C(=O)Nc2ccccc2C(=O)O)cc1
-5.3%	-11%	24%	-9	O=C(NCCc1c[nH]c2ccccc12)C1CCC(Cn2c(=S)[nH]c3ccccc3c2=O)CC1 (configuration not stated)
-5.4%	1%	-2%	-14	CC(=NC(C)C)C1=C(O)CCC1=O
2.0%	6%	1%	4	O=C(O)CCSC(=S)N1CCOCC1
0.8%	u	20%	-5	N#CC1=C(N)Oc2cc3ccccc3cc2C1c1cccs1 (configuration not stated)
u	u	-6%	-5	CC(=O)Oc1cc2oc(=O)c3c(c2cc1Cl)CCC3
0.5%	3%	-14%	0	Cc1ccc(N(CC(=O)N/N=C/c2ccc(OC3CSC3)cc2)S(=O)(=O)c2ccccc2)cc1
1.6%	4%	-2%	2	Cc1ccnc(N2CCC(C(=O)Nc3ccc(Oc4ccccc4)cc3)CC2)n1
-4.5%	-1%	-15%	x	CCOc1cc(CNCCCN2CCOCC2)cc(Cl)c1OCC(=O)NC(C)(C)C
0.8%	-1%	1%	14	CCOC(=O)c1oc2ccccc2c1NC(=O)COc1cccc(OC)c1
-0.4%	10%	11%	-12	CCOC(=O)C1CCCN(c2c(C(=O)c3ccccc3)cnc3ccc(OC)cc23)C1 (configuration not stated)
1.0%	14%	-51%	0	O=C(Oc1ccc(-c2cnc3ccccc3n2)cc1)c1ccc(Br)o1
-2.1%	-5%	x	x	CCOC(=O)c1ccccc1NC(=O)COC(=O)C(CCSC)NC(=O)COc1ccccc1 (configuration not stated)
-1.1%	4%	-2%	-8	CCCCNc1ccc(S(=O)(=O)c2cccc([N+](=O)[O-])c2)cc1[N+](=O)[O-]
0.4%	8%	-1%	-5	O=C(O)c1cc(Cl)c(Cl)cc1C(=O)N1CCCC1
u	u	1%	-16	CCOc1ccc(-c2c(C#N)c(N)nc3sc(C(=O)c4ccccc4)c(N)c23)cc1
4.7%	-15%	-8%	-2	CCn1c(=N)n(CC(O)c2ccco2)c2ccccc21 (configuration not stated)
-0.4%	3%	-1%	5	Cn1nccc1C(=O)N1CCN(c2ccc(F)cc2)CC1
-2.4%	17%	23%	-13	COc1ccc(/C=C/C(=O)C2CC2)cc1COc1c(C)cccc1C
-2.0%	-8%	-47%	x	Cc1ccc(S(=O)(=O)Nc2cccc(-c3ccc(N4CCCCCC4)nn3)c2)cc1C
-0.1%	9%	x	x	Cc1ccc(C(C)NC(=O)c2cccs2)cc1C (configuration not stated)
-3.9%	8%	-55%	x	COc1ccc(OCc2cc(C(=O)N3C[C@H]4CC[C@H]3C4)no2)c(Cl)c1
3.9%	4%	x	x	Cc1cccc(NS(=O)(=O)c2cccc(C(=O)NCC3(N4CCCCC4)CCCCC3)c2)c1
u	-13%	-3%	3	Cc1ccc(S(=O)(=O)N2CC(O)C[C@H]2C(=O)OCC(=O)c2ccccc2)cc1 (some centres not stated)
-3.2%	7%	-29%	-16	CC(=O)n1cc(Nc2ccc([N+](=O)[O-])cc2)c2ccccc21
-1.5%	-4%	x	x	COc1ccccc1NS(=O)(=O)c1cc(NC(=O)c2cccc(S(=O)(=O)N(C)C)c2)ccc1N1CCOCC1
-0.1%	17%	-27%	1	O=C(OCC(=O)N1CCCC1)c1cccs1
0.3%	-9%	-32%	x	CC1CCN(C(=O)CSc2nc3ncccc3[nH]2)CC1
0.6%	7%	-11%	x	COc1ccc(-c2cc(C(=O)N3CCCCCC3)c3cc(C)ccc3n2)cc1
0.5%	6%	1%	-16	Cc1occc1C(=O)NNC(=S)NCc1ccccc1
3.0%	-7%	5%	-9	O=C(NCC(c1cccs1)N1CCOCC1)c1ccccc1NS(=O)(=O)c1ccc(Cl)cc1 (configuration not stated)
0.9%	1%	u	2	CCOC(=O)C(=Cc1ccc(-n2ccnc2)cc1)C(=O)OCC
x	x	-14%	0	C/C(=N\n1nnnc1Nc1ccccc1)c1ccc(N)cc1
-0.3%	3%	-4%	-3	CCOC(=O)c1cnc(SC)nc1Oc1cccc(NS(=O)(=O)c2ccc(Cl)cc2)c1
-2.1%	-9%	-1%	-5	Fc1ccc(CN2CCN3CCCC3C2C2CCCCC2)cc1F (configuration not stated)
-1.3%	9%	3%	-3	O=C(CN1CCN(c2ccc(Cl)cc2)CC1)N1CCCC1
4.1%	-11%	-11%	-9	C/C(CCC(=O)O)=N/Nc1ccc([N+](=O)[O-])cc1[N+](=O)[O-]
1.6%	-7%	-4%	-21	Cc1cc(NS(=O)(=O)c2ccc(NC(=S)Nc3ccc(Cl)cc3C)cc2)no1
1.9%	9%	x	x	O=C1CN(S(=O)(=O)c2cccc(Br)c2)CCN1
u	u	u	x	COc1ccc(/C=N/Nc2cc(C)nc3ccc(OC)cc23)c(OC)c1
4.2%	0%	-17%	-19	CC(C)(C)NC(=O)CSc1ccc(C(C)(C)C)cc1
-4.0%	13%	-3%	-9	COc1ccc(/C=C/C(=O)OCC(=O)NCCC2=CCCCC2)cc1OC
-0.4%	-16%	x	x	CC(OC(=O)/C=C/c1ccc2ccccc2n1)C(=O)N(C)c1ccccc1 (configuration not stated)
1.9%	15%	0%	-6	C=CCn1c(NC(=O)c2ccc(Br)o2)c(C(=O)OCC)sc1=S
u	u	-1%	5	CC(C)OC(=O)c1nn2c(C(F)(F)F)cc(-c3ccc(Br)o3)nc2c1Br
-0.1%	5%	x	x	CCc1ccc2nc(NC(=O)C3CSC4(C)CCC(=O)N34)sc2c1 (configuration not stated)
1.5%	-10%	-5%	6	Nc1ccn(Cc2cccc(Cl)c2)n1
-1.9%	7%	x	1&9	CC[N+](CC)(CC)CCOc1cccc(OCC[N+](CC)(CC)CC)c1OCC[N+](CC)(CC)CC
-0.3%	-4%	-41%	-5	COc1ccc(OC)c(Nc2nc(-c3sc(C)nc3C)cs2)c1
4.5%	-11%	-9%	-2	CCc1ccccc1NC(=O)CN(C)Cc1nc(N)nc(Nc2ccccc2C)n1
0.8%	-8%	-1%	x	CCCn1c(CN2CCN(C(=O)OCC)CC2)nc2cc([N+](=O)[O-])ccc21

Six records drawn at random from those above:
Rango-impB inh	Rango release inh	miR-21 reporter	GLA inh pH 4.5	Molecule
5.6%	16%	-5%	x	CCOc1ccccc1N(CC(=O)NC1CCCCC1)C(=O)CCC(=O)Nc1cc(C)ccn1
0.4%	8%	-1%	-5	O=C(O)c1cc(Cl)c(Cl)cc1C(=O)N1CCCC1
0.8%	-1%	1%	14	CCOC(=O)c1oc2ccccc2c1NC(=O)COc1cccc(OC)c1
u	-11%	-46%	x	Cc1cccc(NC(=O)/C(C#N)=C/c2ccc[nH]2)c1C
u	-13%	-3%	3	Cc1ccc(S(=O)(=O)N2CC(O)C[C@H]2C(=O)OCC(=O)c2ccccc2)cc1 (some centres not stated)
1.9%	9%	x	x	O=C1CN(S(=O)(=O)c2cccc(Br)c2)CCN1

(cont.)
Rango-impB inh	Rango release inh	miR-21 reporter	GLA inh pH 4.5	Molecule
-2.8%	-10%	-6%	x	CCc1ccc(Nc2n[n+](-c3ccccc3)c(-c3ccc(OC)c(Br)c3)s2)cc1
2.7%	0%	14%	x	CCOC(=O)CNC(=O)C1(/C=C/c2ccccc2)CC(=O)N1c1ccc(C)cc1 (configuration not stated)
u	u	-1%	7	O=C(CCc1nnc(CCCCc2ccccc2)o1)NCCCc1cccnc1
u	u	0%	-10	COc1ccc(-n2c(N)c(C(=O)NCc3ccco3)c3nc4ccccc4nc32)cc1OC
0.7%	0%	3%	x	Cc1cc(C)c(NC(=O)CSc2nnc(CN3CCOCC3)n2C)c(C)c1
-0.3%	-22%	-2%	-4	CC(C)Cc1nc2oc3c(NCC(C)O)ncnc3c2c2c1CCCC2 (configuration not stated)
1.7%	-4%	-8%	6	CCS(=O)CCSC(=N)N (configuration not stated)
0.1%	12%	-2%	-14	CC1=C(CCN2CCN(C(C)C)C(CCO)C2)C(C)(C)CCC1 (configuration not stated)
u	1%	-15%	-7	NC(=O)c1ccccc1N/C=C1\CCCCC1=O
0.6%	-6%	-49%	2	O=C(OCc1nc2ccccc2s1)c1cnccn1
11%	-8%	2%	x	COc1ccccc1CNC1CCN(Cc2ccccc2)CC1
0.4%	-4%	x	x	CSc1ccc(S(=O)(=O)NCC(=O)OCC(=O)NC2(C#N)CCCCC2)cc1[N+](=O)[O-]
-2.6%	-5%	-36%	5	Cc1ccccc1C(=O)Nc1ccc(N2CCCC2)cc1
1.3%	4%	x	x	CN1CCN(S(=O)(=O)c2cccc(C(=O)N(C)Cc3cccs3)c2)CC1
-1.6%	5%	x	x	COCC(=O)N(C)C[C@H]1N[C@@](Cc2ccccc2)(C(=O)OC)[C@H]2C(=O)N(Cc3ccccc3)C(=O)[C@@H]12
0.3%	4%	x	x	NC(=O)C1CCN(C(=O)c2cc3c(s2)CCCC3)CC1
-3.0%	4%	-2%	-22	O=C(Nc1cccc(C(F)(F)F)c1)C1CCCO1 (configuration not stated)
0.2%	0%	0%	9	Cc1cccc(OCC(=O)OCC(=O)c2c(N)n(C)c(=O)n(C)c2=O)c1
-0.4%	-18%	x	x	CCCCN(C(=O)CSCC(=O)Nc1ccc(C)cc1)c1c(N)n(CC(C)C)c(=O)[nH]c1=O
-1.2%	-10%	-1%	-15	COc1ccc2c(c1)CC/C(=C\c1ccc(OC)c(Cn3cccn3)c1)C2=O
-0.3%	13%	0%	x	COc1ccc(C(=O)N2CCCN(C)CC2)c(OC)c1
-1.7%	0%	x	x	CCN(CC(=O)Nc1ccc(OC)cc1)CC(=O)Nc1ccc2c(c1)OCO2
2.3%	2%	16%	x	NC(=O)c1ccc(NC(=O)C#Cc2ccccc2)cc1
-3.7%	14%	-5%	-2	CCC(=O)c1cccc2c1N=CC1=C(CC(C)(C)CC1=O)N2
-0.5%	3%	1%	7	COc1cc(C(=O)NC2=C(C#N)CCC2)cc(OC)c1OC
-2.4%	0%	-20%	1	O=C(CCNC(=O)c1ccc(Br)cc1)Nc1nccs1
0.0%	2%	-2%	10	CCOC(=O)C1CCCN(C(=O)COc2ccccc2F)C1 (configuration not stated)
6.1%	0%	-5%	-2	COc1ccccc1CNC(=O)COC(=O)C1=COCCO1
u	u	0%	-6	FC(F)(F)c1ccnc(NCc2ccco2)n1
4.9%	-1%	-2%	0	Cc1ccn2c(CNCC3OCCc4ccccc43)c(C(=O)N3CCCCCC3)nc2c1 (configuration not stated)
-0.6%	-9%	1%	x	Cc1ccc(CNC(=O)[C@@H](NC(=O)Cc2ccccc2)C(C)C)cc1
